Source: PubChem
HPGD block – HPGD (human) dehydrogenase inhibition; P15428; purified HPGD, NADH fluorescence kinetic, PGE2 substrate; Potency, µM, for inactives: top-dose activity change, negative = inhibition, usual class: inhibitors; hit rate 4.3% among 150,000; AID 894; active = well fitted inhibition curve with a large enough effect (not every such curve was filed as active); inconclusive = small, poorly fitted or top-dose-only effect, or another doubt; inactive = no such curve, though single readings can be large or run the other way;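 also: top concentration of the series not given in the record; plate controls included wells without enzyme; inactives centre near -10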
Target sequence (P15428 whole entry, looked up): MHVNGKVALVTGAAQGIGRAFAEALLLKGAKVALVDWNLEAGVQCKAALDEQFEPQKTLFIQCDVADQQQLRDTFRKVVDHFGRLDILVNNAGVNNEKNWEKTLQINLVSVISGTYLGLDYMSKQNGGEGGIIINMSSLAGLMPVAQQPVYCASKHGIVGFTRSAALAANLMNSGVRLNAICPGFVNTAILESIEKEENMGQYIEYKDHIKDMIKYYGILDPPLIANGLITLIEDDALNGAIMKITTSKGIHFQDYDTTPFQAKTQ
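20 nM HPGD preincubated 15 min at room temperature with compound in 50 mM Tris-HCl pH 8, 0.01% Tween 20. Started with 1 mM NAD+ and 30 uM prostaglandin E2; NADH fluorescence (360/450 nm) read 5 times over 30-s intervals, last minus first.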
* marks the source's active call; other numbers are inactive results; ? = inconclusive; & = joins results of further samples. % is scaled to controls: 0 for no effect and ±100 for the full control effect; potency is read from the fitted curve at half-maximal effect. A portion of the library, so the mix of outcomes need not match the whole.

molecule,HPGD block
CCOc1cc(NC(=S)NCc2ccco2)c(OCC)cc1NC(=O)C1CC1,-0.3%
COc1ccc2nc(Cl)c(C3CC(c4ccco4)=NN3C(=O)CCC(=O)O)cc2c1 (stereo not given),-29.9%
COc1ccc(NC(=O)c2oc3ccccc3c2NC(=O)c2ccc3c(c2)OCO3)cc1,?
CCCN(CC(=O)c1cc(C)n(C)c1C)S(=O)(=O)c1cccc(C(F)(F)F)c1,-9.2%
Cc1ccc(-c2nc3ncccc3o2)cc1NC(=O)c1sc2ccccc2c1Cl,?
CC(C)CNC(=S)NNC(=O)c1ccc2c(c1)OCO2,-4.9%
CC(C)N(C(=O)CSc1nc2c([nH]1)c(=O)n(C)c(=O)n2C)c1ccccc1,-5.4%
O=C1c2ccccc2-c2ccc(NC(=O)[C@H]3CCCC[C@@H]3C(=O)O)cc21,-12.3%
COc1cc(/C=C/C(=O)O)cc(S(=O)(=O)N(C)CCO)c1OC,-23.4%
COc1ccc2c(c1)O[C@@H](c1cccc(C(F)(F)F)c1)[C@H](OC(=O)NS(=O)(=O)c1ccc(C)cc1)C2=O,-2.5%
Cc1cc(/C=N\O)c(C)n1-c1ccncc1,-15.1%
CSc1ccccc1NC(=O)CN(C)S(=O)(=O)c1ccc(F)cc1,-15.5%
Fc1ccc(OCCCCCCN2CCCC2)cc1,3.7%
CCCN(C#N)c1nc(NCC)nc(NC(C)C)n1,-4.7%
CCOC(=O)C1=C(C)NC2=C(C(=O)CCC2)C1c1ccc(N(C)C)cc1 (stereo not given),-1.3%
Cn1c2ccccc2c2nnc(SCN3C(=O)c4ccccc4C3=O)nc21,-26.7%
CC(C)(C)c1ccc(OCC(=O)N2CCN(C=O)CC2)cc1,-3.6%
COc1ccccc1N1CCN(S(=O)(=O)c2cccc(F)c2)CC1,-8.7%
Cc1cccc(NC(=O)c2ccccc2C(=O)O)c1,7.5%
Cc1cc(NC(=O)CCC(=O)N(C2CC2)C2(C(=O)NC3CCCC3)CCC(C)CC2)no1 (stereo not given),-10.7%
CCOC(=O)N1CCN(C(=O)c2ccc3c(=O)n(CCC4=CCCCC4)c(=O)[nH]c3c2)CC1,-6.1%
Cc1ccc(CS(=O)(=O)CCC(=O)NCC2CCCO2)cc1 (stereo not given),-3.7%
CCOCc1nnc(NC(=O)CSc2ccccc2)s1,-16.8%
CCOC(=O)CNC(=O)CSc1nc(C)cc(C)c1C#N,-9.1%
Cc1cc(C(=O)OC(C(=O)Nc2ccc(C)c(Cl)c2)c2ccccc2)c(C)o1 (stereo not given),-13.4%

Additional compounds
molecule,HPGD block
CN(C)C(=O)c1ccc(COc2ccccc2Br)o1,-24.0%
O=C(c1ccccc1)N1CCCCC(Sc2nnnn2-c2ccccc2)C1=O (stereo not given),-10.8%
O=c1cc(-c2ccccc2)nc2nc(-c3ccco3)[nH]n12,-25.8%
Cn1nc(C(=O)NC2=NCCS2)ccc1=O,-0.3%
CC1(C)Cc2c(sc3c2C(=O)N(c2ccccc2)C2=NCCN23)CS1,-19.5%
COc1ccccc1-c1nn2c(=O)cc(C)nc2s1,?
CCOC(=O)CNC(=O)Nc1nnc(-c2ccc(OCC)cc2)o1,?
CCCn1c(C)nc2c(NCCCN(C)C)nc(C)nc21,-12.5%
CC1(C)CC(=O)c2cnc(NC(=O)c3ccco3)nc2C1,-5.9%
COC(=O)C(C(=O)OC)c1ccccc1[N+](=O)[O-],-2.5%&2.6%
CCC(=O)Nc1ccc(-c2cc(-c3ccccc3)nc(-c3ccc(NC(=O)CC)cc3)n2)cc1,?
COc1cccc(C(=O)NC(=S)Nc2ccc(Cl)c(C(=O)O)c2)c1,-17.4%
C/C(=N\Nc1nc(C)cc(-c2ccccc2)n1)c1ccc(C)o1,-4.3%
CCCCC(=O)Nc1cccc(-c2nc3ncccc3o2)c1,?
Clc1ccc(Br)cc1-c1nc(-c2ccncc2)no1,-28.5%
CCC1(C)Cc2ccccc2/C(=C/C(=O)N2CCCCC2)N1 (stereo not given),-11.1%
CCOc1ccc(CN2CCN(CC(O)Cn3c4ccccc4c4ccccc43)CC2)cc1 (stereo not given),-11.2%
COc1ccccc1Nc1ncccc1C(=O)NCc1ccccc1,-17.8%
Cc1cc(C)n(-c2nncn2NC(=O)c2ccc(Cl)cc2O)n1,-17.0%
Fc1ccc(Oc2ncccn2)c(F)c1,-6.7%
Cc1ccc(Nc2c3c(nc4ncnn24)CC(C)CC3)cc1 (stereo not given),-11.8%
CC(C)CC1(C(=O)NCc2ccccn2)C=CCN1C(=O)c1ccccc1 (stereo not given),3.3%&-8.7%
CS(=O)(=O)N1CCC(C(=O)NCCN2CCN(Cc3ccccc3)CC2)CC1,-8.4%
O=C(OCc1cccc2ccccc12)c1ccc2c(=O)[nH]c(CN3CCOCC3)nc2c1,-14.3%
COc1ccc(CC(=O)Nc2ccc3c(c2)CCC3)cc1S(=O)(=O)N1CCOCC1,-4.0%

Continued:
molecule,HPGD block
Nc1nonc1C(=O)OCC(=O)N1CCCCC1,-5.5%
COc1cccc(C2CC(c3cccs3)=NN2C(=O)CSC2=NN3CCCC(=O)N=C3S2)c1OC (stereo not given),-20.8%
CC(Oc1ccccc1)C(=O)NC1C(=O)N2C(C(=O)O)C(C)(C)S[C@@H]12 (stereo not given in full),-13.4%
Cc1ccccc1-n1c(C)cc(/C=N/NC(=O)c2ccc(CN3CCOCC3)cc2)c1C,-16.5%
CCOc1ccc(OCc2ccc(C(=O)N3N=C(C(F)F)CC3(O)C(F)F)o2)cc1 (stereo not given),-15.2%
CCOc1ccc(N2C(=O)CN=C2Nc2ccccc2F)cc1,-7.2%
Cc1ccc(Oc2nnc(-c3cccs3)c3ccccc23)cc1C,-7.4%
Cn1nnc(C(O)CNCc2cccs2)n1 (stereo not given),-4.4%
Cc1cc(NS(=O)(=O)N(C)C)ccc1C(C)C,15.8µM*
CCOc1cc(N2CCOCC2)c(OCC)cc1NC(=O)c1nc2nccc(C)n2n1,-13.2%
NC(=O)[C@@H]1CCNc2c(I)cc([N+](=O)[O-])cc2C(=O)N[C@@H](CCC(=O)O)C(=O)N[C@@H](CO)C(=O)N1,-25.3%
Cc1ccc(C(=O)O/N=C2\CCCc3ccccc32)cc1,-5.7%
O=C(NNC(=O)c1sc2cccc(Cl)c2c1Cl)Nc1ccccc1,-8.3%
COc1cc2nc(C3CCC3)n(NC(=O)C(OC(C)=O)c3ccccc3)c(=O)c2cc1OC (stereo not given),-5.1%
Cc1ccc(C(=O)CSc2ccc(-c3ccccc3)nn2)cc1,?
Cc1cc(C)cc(Oc2nc(-c3ccccc3)cc(C)c2S(C)(=O)=O)c1,?
CCN(C(=O)CN1CCOCC1)C1(C)C(=O)c2ccccc2C1=O,-5.3%
COc1ccc2[nH]c(=O)c(-c3noc(-c4ccc(F)cc4)n3)cc2c1,-11.3%
Cc1ccc(NC(=O)[C@@H](NC(=O)c2cccc(S(=O)(=O)N3CCOCC3)c2)C(C)C)cc1C,-9.3%
CSc1c(SCc2ccccc2)cnn(-c2ccccc2)c1=O,-10.3%
COc1ccc(Nc2cc(=O)n(C3CCCCC3)c(=O)[nH]2)c(OC)c1,-2.5%
Cc1ccc(S(=O)(=O)N2C(=O)CCC2C(=O)NCc2ccco2)cc1 (stereo not given),-11.0%
O=C(CCCc1c[nH]c2ccccc12)N1CCOCC1,-24.4%
Cc1ccc(C2OCC3(CO)COC(c4ccc(C)cc4)N23)cc1 (stereo not given),-10.6%
Cc1ccc(NC(=O)NC(=O)CSc2nnc(-c3ccc(OC(F)F)cc3)n2N)c(C)c1,-5.9%

Quoted at random: three records from the list, in no set order.
molecule,HPGD block
CCOc1ccc(CN2CCN(CC(O)Cn3c4ccccc4c4ccccc43)CC2)cc1 (stereo not given),-11.2%
COc1ccc(NC(=O)c2oc3ccccc3c2NC(=O)c2ccc3c(c2)OCO3)cc1,?
COc1cccc(C2CC(c3cccs3)=NN2C(=O)CSC2=NN3CCCC(=O)N=C3S2)c1OC (stereo not given),-20.8%

(listing goes on)
molecule,HPGD block
CCOc1c(Cl)cc(C2NC(=O)NC(C)=C2C(=O)NCc2ccccc2)cc1OC (stereo not given),-4.9%
O=C(COC(=O)C1CCN(S(=O)(=O)c2ccccc2)CC1)NC(=O)c1ccc(OC(F)F)cc1,-9.3%
Clc1ccc(OCCSc2ncccn2)c2ccccc12,?
N=C1C(c2nc(-c3ccc(Cl)cc3)cs2)=C(O)CN1CCCN1CCOCC1,-4.9%
Cc1ccccc1C(=O)Nc1ccc(Cl)cn1,-6.3%
Cc1ccc(-c2nnn(CCC(=O)Nc3ccc4c(c3)OCO4)n2)cc1,-4.5%
COc1ccc(O)c(-c2cc(-c3ccccc3[N+](=O)[O-])[nH]n2)c1,22.4µM*
CC(C)(C)[Si](OCC[C@@H]1C[C@@]1(C)[C@@H](NP(=O)(c1ccccc1)c1ccccc1)c1ccccc1)(c1ccccc1)c1ccccc1,-11.5%&-3.3%
CCn1c(SCC(=O)NCc2ccco2)nnc1-c1cccs1,25.1µM*
CCOc1cc2[nH]c(=O)n(Cc3ccc(C(=O)NCCOC)cc3)c(=O)c2cc1OCC,?
COc1cc(OC)cc(-c2nc(-c3cc4cc(C)ccc4nc3OC)no2)c1,-14.2%
Cc1cc(C)c2c(N=NN(C)C)[nH]nc2n1,-5.9%
CC(=O)Oc1ccc(C(C)=O)c2c1OCCO2,-15.2%
COc1ccc(SCc2noc(C(=O)NC(C)C)c2C(=O)O)cc1,-24.4%
CCN(CC)S(=O)(=O)c1ccc(Oc2cccc(C(C)=O)c2)nc1,-13.5%
CC(=O)Oc1cccc(N2C(=O)C3C4C=CC(C4=C(C)C)C3C2=O)c1 (stereo not given),-10.8%
COc1ccccc1C(=O)NC(CCSC)C(=O)NCC(c1ccco1)N(C)C (stereo not given),-16.7%
CCn1c2ccccc2c2nnc(SCC(=O)NCCOC)nc21,15.8µM*
CCn1c(=O)cc(OCC(=O)Nc2ccc(C)cn2)c2ccccc21,-10.3%
Cc1ccc2nc(-c3ccc(SCC(=O)N4CCc5ccccc54)nc3)[nH]c2c1,?
CCN1CCN(c2nc3ccccc3nc2C(C#N)S(=O)(=O)c2ccc(C)cc2)CC1 (stereo not given),-22.1%
Cc1ccc(S(=O)(=O)NCC(=O)OCN2C(=O)c3ccccc3C2=O)cc1,-5.9%
C=CCNC(=O)c1ccc(-c2nc(-c3ccc(Cl)cc3Cl)cs2)cc1,3.98µM*
O=C(c1csnn1)N1CCC[C@@]2(CCN(c3ccncc3)C2)C1,-10.2%
CCOC(=O)c1sc(C)c2c1NC(C)(c1ccccc1)NC2=O (stereo not given),?

Next part
molecule,HPGD block
CC(=O)c1c(C)[nH]c(C(=O)OCC(=O)Nc2ccc([N+](=O)[O-])cc2Cl)c1C,-0.6%
S=c1c2[nH]cnc2ncn1CCSc1ncnc2nc[nH]c12,-8.3%
CC(O)(CS(=O)(=O)Cc1ccccc1Cl)C(=O)Nc1cccc(C(F)(F)F)c1 (stereo not given),1.7%
CCCCCCCCCOC(=O)C(CC(=O)O)N1CCOCC1 (stereo not given),-9.9%
COc1ccc(C2CC(c3ccc(Cl)cc3Cl)Nc3nc(N)nn32)cc1OC (stereo not given),-12.6%
Cc1ccc(C(C(=O)NC2CCCC2)N(Cc2ccco2)C(=O)CCC(=O)Nc2cc(C)on2)cc1 (stereo not given),-3.5%
O=c1cnc2ccccc2n1CC1CCCCC1,-12.9%
O=C(Nc1nnc(C2CC2)s1)c1cc2c(s1)CCCCCC2,?
CCOC(=O)C1C(=O)C=C(c2ccc(C)cc2)CC1c1ccco1 (stereo not given),-18.6%
C=CCn1c(CSCc2ccc(C)cc2)nnc1SCC(=O)NCc1ccccc1,-2.0%
Cc1ccc(C2CC(c3cccs3)=NN2C(=O)c2ccc(Br)o2)cc1 (stereo not given),?
CC(=O)c1c(C)[nH]c(C(=O)CSc2nc3ccccc3c(=O)n2CCCN2CCOCC2)c1C,?
O=C(C1CCCN(S(=O)(=O)c2cccc3cccnc23)C1)N1CCc2ccccc21 (stereo not given),-8.6%
Cc1ccc(C2CC2C(=O)NNC(=S)Nc2cccc(Cl)c2)cc1 (stereo not given),-25.5%
Cc1ccc(NC(=O)CSc2nnc(CN3CCOCC3)n2-c2ccccc2)cc1,-6.1%
Cc1ccc2c(n1)sc1c(N)ncnc12,?
O=C1c2ccccc2C(=O)c2c(Nc3cc4c5c(ccc6c7ccc8c9c(cc(Nc%10cccc%11c%10C(=O)c%10ccccc%10C%11=O)c(c3c56)c97)-c3ccccc3C8=O)C(=O)c3ccccc3-4)cccc21,-4.1%
N#CC1(C#N)C(C(N)=O)C1c1ccccc1 (stereo not given),-9.5%
Cc1cc(NC(=O)C(C)C)ncc1NC(=O)c1cccc(F)c1,-23.6%
COc1ccc(C(=O)Oc2ccc(/C=N/O)cc2)cc1,-14.5%
Fc1cccc(Cn2ccc(-c3ccc4c(c3)OCO4)n2)c1,-23.2%
COc1ccccc1-c1nn2c(C3COc4ccccc4O3)nnc2s1 (stereo not given),?
COc1cc(/C=N/NC(=O)c2ccc(=O)[nH]n2)ccc1O,-27.9%
COC(=O)N/N=C\C=C\c1ccc2c(c1)OCO2,-5.1%
